Env fusion inh: inhibitors of HIV-1 Env-driven cell-cell fusion, primary screen, HeLa-JRFL effector, CEM21 target cells, luciferase. inhibition, % at 12.3 µM. actives 1.1% (n = 360,000). AID 651610, 2012;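 active = mean replicate inhibition score of at least 50 and every replicate individually at or above 50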;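 note: 0% = plate neutral controls and 100% = maraviroc near 300 nM; one replicate is shown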
* marks the source's active call; other numbers are inactive results; [ ] = dose if it differs, or a comment. An excerpt; count on the stated rates, not on these rows.

SMILES	Env fusion inh
C[C@H]1CN([C@@H](C)CO)C(=O)CCCn2cc(nn2)CO[C@H]1CN(C)C(=O)Nc1ccc(F)cc1	-6.3[16.7 µM]
CO[C@H]1CN(C)C(=O)c2cc(NC(=O)C3CCC3)ccc2OC[C@H](C)N(C)C[C@H]1C	-51.1[16.7 µM]
CN(C)C(=O)[C@@H]1[C@@H](CO)[C@@H]2Cn3c(ccc(C4=CCCC4)c3=O)[C@H]1N2CCC(F)(F)F	-12.5[16.7 µM]
COCC(=O)Nc1ccc2c(c1)C(=O)N(C)C[C@@H](OC)[C@@H](C)CN(Cc1cc(F)ccc1F)[C@H](C)CO2	9.5[16.7 µM]
C[C@@H]1CN([C@@H](C)CO)C(=O)c2cc(NC(=O)c3ccccc3)ccc2O[C@@H](C)CCCCO[C@H]1CN(C)C(=O)c1ccncc1	-0.2[16.7 µM]
COCC(=O)Nc1ccc2c(c1)OC[C@H](C)N(CC1CC1)C[C@@H](C)[C@H](OC)CN(C)C2=O	-18.1[16.7 µM]
COc1ccc2c3c(n(C)c2c1)[C@@H](CO)N(C(=O)c1ccccc1)CC31CN(C(=O)c2ccccc2)C1	49.1[16.7 µM]
COC(=O)c1cc2c(c3c4cc(F)ccc4n(S(=O)(=O)c4ccc(OC)cc4)c13)C(=O)N(Cc1ccccc1OC)C2	5.2
CC(C)NC(=O)Nc1ccc2c(c1)CC(=O)N([C@@H](C)CO)C[C@@H](C)[C@@H](CN(C)C)O2	-5.3[16.7 µM]
CNC[C@@H]1Oc2ccc(NC(=O)C3CC3)cc2CC(=O)N([C@@H](C)CO)C[C@@H]1C	5.2[16.7 µM]
C[C@@H]1CN([C@@H](C)CO)C(=O)c2c(c3ccccc3n2C)-c2ccccc2CO[C@@H]1CN(C)S(=O)(=O)c1cccc(F)c1	9.8[16.7 µM]
CC(C)NC(=O)N(C)C[C@H]1Oc2ccc(NC(=O)Cn3cnnn3)cc2C(=O)N([C@@H](C)CO)C[C@@H]1C	3.8[16.7 µM]
COC(=O)c1c(CC[C@@H](CO)NC(=O)N[C@H](Cc2ccccc2)Cn2cc(-c3ccccc3N)nn2)oc(C(C)=O)c1C(=O)OC	4.9[16.7 µM]
COCC(=O)N(C)C[C@H]1Oc2cc(C#Cc3cccnc3)ccc2S(=O)(=O)N([C@H](C)CO)C[C@@H]1C	16.4[16.7 µM]
C[C@@H]1CCCCO[C@H](CN(C)C)[C@H](C)CN([C@H](C)CO)C(=O)c2cc(NS(=O)(=O)c3ccccc3)ccc2O1	0.9[16.7 µM]
COC(=O)[C@]12C[C@H](CC(=O)NCCCCc3ccccc3)C(=O)N(Cc3ccc4c(c3)OCO4)C1=C[C@H](C(C)(C)C)O[C@@H]2C	-19.5
CCCN1C[C@@H](C)[C@@H](OC)CN(C)C(=O)c2cc(NS(C)(=O)=O)ccc2OC[C@H]1C	-5.2[16.7 µM]
CN1C(=O)c2cc(NS(=O)(=O)c3ccccc3F)ccc2OC[C@H]2O[C@H](CC(=O)NC3Cc4ccccc4C3)CC[C@@H]21	13.9[16.7 µM]
C[C@H]1CN([C@@H](C)CO)C(=O)c2cc(NC(=O)CCN3CCOCC3)ccc2O[C@@H]1CN(C)Cc1ccc(-c2ccccc2)cc1	-12.0[16.7 µM]
CC=Cc1ccc2n(c1=O)C[C@@H]1[C@@H](CO)[C@H](C(=O)NC3CCC3)[C@H]2N1S(=O)(=O)c1cn(C)cn1 (mixture of isomers)	26.0[16.7 µM]
COc1ccc(NC(=O)N(C)C[C@@H]2Oc3c(NS(=O)(=O)c4ccccc4)cccc3C(=O)N([C@@H](C)CO)C[C@@H]2C)cc1	-53.8[16.7 µM]
CC(C)NC(=O)Nc1ccc2c(c1)C(=O)N([C@H](C)CO)C[C@H](C)[C@@H](CN(C)Cc1ccncc1)OCCCC[C@@H](C)O2	-12.7[16.7 µM]
Nc1[nH]c(C(=O)c2ccccc2)c(-c2cc(F)ccc2Br)c1C(=O)NCCc1c[nH]c2ccccc12	-37.7
COc1ccc2c3c([nH]c2c1)[C@@H](CO)N(C(=O)CN1CCOCC1)CC31CN(CC2CCCC2)C1	8.8[16.7 µM]
CO[C@@H]1CN(C)C(=O)c2ccc(NS(C)(=O)=O)cc2OC[C@H](C)N(Cc2ccccn2)C[C@@H]1C	4.9[16.7 µM]
C[C@@H]1CN([C@@H](C)CO)C(=O)c2ccccc2-c2ccccc2CO[C@H]1CN(C)C(=O)[C@@H]1CCCN1C	15.4[16.7 µM]
COc1ccc2c3c(n(C)c2c1)[C@H](CO)N(C(=O)Nc1ccc(F)cc1)CC31CCN(S(=O)(=O)c2cn(C)cn2)CC1	-3.8[16.7 µM]
C[C@H]1CCCCO[C@H](CN(C)S(=O)(=O)c2cn(C)cn2)[C@@H](C)CN([C@@H](C)CO)C(=O)c2cc(N(C)C)ccc2O1	-15.2[16.7 µM]
CO[C@@H]1CN(C)C(=O)c2ccc(NC(=O)Nc3cc(F)ccc3F)cc2OC[C@H](C)N(C)C[C@@H]1C	-3.2[16.7 µM]
COc1ccc(N2CCN(C(=O)C3CCN(S(=O)(=O)c4ccc5c(c4)CC(C)N5C(=O)C4CC4)CC3)CC2)cc1 (stereo unspecified)	-1.9
COc1ccc(NC(=O)Nc2ccc3c(c2)CC(=O)N([C@@H](C)CO)C[C@H](C)[C@@H](CN(C)S(=O)(=O)c2ccc(Cl)cc2)O3)cc1	-19.8[16.7 µM]
O=C(C[C@H]1CC[C@H]2[C@@H](COC[C@H](O)CN2Cc2nccs2)O1)N1CCC(Cc2ccccc2)CC1	1.1[16.7 µM]
CO[C@@H]1CN(C)C(=O)c2ccc(NC(C)=O)cc2OC[C@H](C)N(C(=O)c2cnccn2)C[C@@H]1C	7.8[16.7 µM]
CO[C@@H]1CN(C)C(=O)c2cc(NC(=O)c3ccccc3F)ccc2OC[C@H](C)N(C(C)=O)C[C@H]1C	-6.2[16.7 µM]
COc1cccc(NC(=O)C[C@H]2CC[C@@H]3[C@H](COc4ccc(NC(=O)C5CCOCC5)cc4C(=O)N3C)O2)c1	-8.5[16.7 µM]
CCC(=O)Nc1ccc2c(c1)OC[C@H](C)N(C(=O)c1ccc(F)cc1)C[C@@H](C)[C@@H](OC)CN(C)C2=O	-18.7[16.7 µM]
O=C(NS(=O)(=O)c1cccs1)[C@H]1O[C@@H](n2ccc(=O)[nH]c2=O)[C@H](O)[C@@H]1O	11.7
CCC(=O)N1C[C@@H](O)COC[C@H]2O[C@H](CC(=O)NC)CC[C@@H]21	-23.7[16.7 µM]
COc1ccccc1C(=O)N1O[C@]23C=C[C@]14C[C@@H](O)CC[C@]4(C)C2CC[C@]1(C)[C@@H]([C@H](C)/C=C/[C@H](C)C(C)C)CC[C@H]13 (stereo partly specified)	-18.5
Cc1ccc(S(=O)(=O)Nc2ccc3c(c2)CC(=O)N([C@@H](C)CO)C[C@H](C)[C@H](CN(C)Cc2ccc(C(=O)O)cc2)O3)cc1	1.6[16.7 µM]
O=C1Nc2cnc(Cl)nc2Nc2ccc(Cl)cc21	12.5
CCCNC(=O)C[C@H]1CC[C@H]2[C@H](COc3ccc(NC(=O)c4ccc5c(c4)OCO5)cc3C(=O)N2C)O1	11.0[16.7 µM]
CC(C)NC(=O)Nc1ccc2c(c1)CC(=O)N([C@@H](C)CO)C[C@@H](C)[C@H](CN(C)C(=O)NC1CCCCC1)O2	-5.0[16.7 µM]
COc1cccc(-c2ccc([C@@H]3[C@@H](CO)N4C(=O)CN(C(=O)C5CCCC5)C[C@H]34)cc2)c1	17.2[16.7 µM]
O=C(CN1CCOCC1)NCC[C@H]1CC[C@@H](NS(=O)(=O)c2ccc(F)cc2)[C@H](CO)O1	26.7[16.7 µM]
CN(C)CC(=O)Nc1ccc2c(c1)[C@@H]1C[C@H](CC(=O)N3CCCCC3)O[C@H](CO)[C@@H]1O2	-3.5[16.7 µM]
Cc1ccc(NC(=O)OCCN(C)C(=O)Nc2ccc(C)cc2C)c(C)c1	20.2
Cc1ccccc1C(=O)N[C@@H](Cc1cccnc1)C(=O)N1CCC[C@H]1C(=O)NC1CCCC1	11.0
COC(=O)C1=C(C)N(Cc2ccc(C(F)(F)F)cc2)C(=NCc2ccc(C(F)(F)F)cc2)NC1c1ccccc1 (stereo unspecified)	38.3
C[C@@H](NC(=O)C[C@H]1CC[C@H]2[C@@H](COC[C@@H](O)CN2C(=O)Nc2cccc(Cl)c2)O1)c1ccccc1	9.7[16.7 µM]
CO[C@@H]1CN(C)C(=O)c2cc(NC(=O)C3CCC3)ccc2OC[C@H](C)N(Cc2ccccn2)C[C@@H]1C	-4.8[16.7 µM]
C[C@H](CO)N1C[C@H](C)[C@H](CN(C)S(=O)(=O)c2ccccc2)Oc2ccc(N(C)C)cc2CC1=O	-7.1[16.7 µM]
C[C@@H]1CN([C@H](C)CO)C(=O)c2cc(NC(=O)Cc3cn(C)c4ccccc34)ccc2O[C@@H]1CN(C)Cc1ccc(-c2ccccc2)cc1	-0.9[16.7 µM]
C[C@H](NC(=O)[C@H]1[C@H](CO)[C@H]2Cn3c(cccc3=O)[C@@H]1N2CCC(F)(F)F)c1ccccc1	-1.8[16.7 µM]
C[C@@H]1CN([C@@H](C)CO)C(=O)c2cc(-c3ccc(C(=O)N(C)C)cc3)cnc2O[C@H]1CN(C)C(=O)c1ccncc1	-17.3[16.7 µM]
CO[C@@H]1CN(C)C(=O)c2ccc(NC(=O)C3CCCC3)cc2OC[C@@H](C)N(C(=O)CC2CC2)C[C@H]1C	4.5[16.7 µM]
Cc1ccc(S(=O)(=O)NCC[C@@H]2CC[C@@H](NC(=O)CC3CC3)[C@@H](CO)O2)cc1	-27.0[16.7 µM]
C[C@H](CO)N1C[C@H](C)[C@@H](CN(C)Cc2ccc(C(=O)O)cc2)OCCCC[C@H](C)Oc2ccc(N(C)C)cc2C1=O	17.8[16.7 µM]
CN1C(=O)c2cc(NC(=O)NC3CCCC3)ccc2OC[C@@H]2O[C@@H](CC(=O)NCC3CC3)CC[C@@H]21	17.2[16.7 µM]
CCNC(=O)Nc1ccc2c(c1)C(=O)N(C)[C@H]1CC[C@@H](CC(=O)N[C@@H](C)c3ccccc3)O[C@H]1CO2	0.5[16.7 µM]

Next entries follow:
SMILES	Env fusion inh
C[C@@H]1CN([C@H](C)CO)S(=O)(=O)c2ccc(C#CCN(C)C)cc2O[C@@H]1CN(C)C(=O)C1CCCCC1	-4.5[16.7 µM]
CN(C)C(=O)C[C@@H]1CC[C@@H](NC(=O)C2CCOCC2)[C@@H](CO)O1	-1.3[16.7 µM]
O=C(Nc1ccc(Cl)c(Cl)c1)N[C@H]1CC[C@@H](CCNC(=O)c2ccc(F)cc2)O[C@@H]1CO	17.7[16.7 µM]
C[C@H]1CN([C@@H](C)CO)C(=O)c2ccccc2-c2ccccc2CO[C@@H]1CN(C)S(=O)(=O)c1cccs1	0.1[16.7 µM]
CO[C@H]1CC[C@@H]2CCOc3ccc(C#N)cc3C(=O)N(C)CCCC(=O)N(C)C[C@@H]1O2	10.3[16.7 µM]
CN(C)C(=O)c1ccc(-c2cccc(-c3nc(C(=O)NC4CCCCC4)cc4c3[C@@H](CCO)N([S@](=O)C(C)(C)C)C4)c2)cc1	-0.2[16.7 µM]
C[C@H]1CN([C@@H](C)CO)S(=O)(=O)c2ccc(C#CCN(C)C)cc2O[C@H]1CN(C)S(=O)(=O)c1cccc(F)c1	11.3[16.7 µM]
COc1ccc(CN2C[C@@H](O)COC[C@H]3O[C@@H](CC(=O)NCCN4CCCC4)CC[C@@H]32)cc1	-12.3[16.7 µM]
C[C@H](NC(=O)C[C@H]1CC[C@H](NC(=O)c2cccnc2)[C@@H](CO)O1)c1ccccc1	2.4[16.7 µM]
COc1ccccc1-c1ccc([C@H]2[C@@H](CO)N(C(=O)C3CCCC3)[C@H]2C#N)cc1	16.2[16.7 µM]
COc1ccc(NC(=O)N(C)C[C@H]2Oc3ccc(N(C)C)cc3C(=O)N([C@@H](C)CO)C[C@H]2C)cc1	-16.0[16.7 µM]
CCS(=O)(=O)Nc1ccc2c(c1)C(=O)N(C)[C@@H]1CC[C@H](CC(=O)N[C@@H]3CCN(Cc4ccccc4)C3)O[C@H]1CO2	-17.4[16.7 µM]
COc1ccc(CN(C)C[C@H]2Oc3c(NS(C)(=O)=O)cccc3C(=O)N([C@@H](C)CO)C[C@H]2C)cc1	3.3[16.7 µM]
COC(=O)c1ccc(CN2C(=O)[C@]3(OCCC=C[C@H]3C)c3cc(OC)ccc32)cc1	-5.9
COc1cccc(-c2ccc3n(c2=O)C[C@@H]2[C@@H](CO)[C@H](C(=O)NCCN4CCCCC4)N(C)[C@H]32)c1	-8.2[16.7 µM]
CO[C@H]1CN(C)C(=O)c2cc(NC(=O)NC(C)C)ccc2OC[C@H](C)NC[C@H]1C	-9.9[16.7 µM]

Looked up above.
Env fusion inh result of O=C(Nc1ccc(Cl)c(Cl)c1)N[C@H]1CC[C@@H](CCNC(=O)c2ccc(F)cc2)O[C@@H]1CO reads 17.7[16.7 µM]
Env fusion inh result of C[C@H]1CN([C@@H](C)CO)C(=O)c2ccccc2-c2ccccc2CO[C@@H]1CN(C)S(=O)(=O)c1cccs1 reads 0.1[16.7 µM]
Env fusion inh result of C[C@@H]1CN([C@H](C)CO)S(=O)(=O)c2ccc(C#CCN(C)C)cc2O[C@@H]1CN(C)C(=O)C1CCCCC1 reads -4.5[16.7 µM]
Env fusion inh result of COc1ccc(CN2C[C@@H](O)COC[C@H]3O[C@@H](CC(=O)NCCN4CCCC4)CC[C@@H]32)cc1 reads -12.3[16.7 µM]
Env fusion inh result of C[C@H](NC(=O)C[C@H]1CC[C@H](NC(=O)c2cccnc2)[C@@H](CO)O1)c1ccccc1 reads 2.4[16.7 µM]
Env fusion inh result of C[C@H]1CN([C@@H](C)CO)S(=O)(=O)c2ccc(C#CCN(C)C)cc2O[C@H]1CN(C)S(=O)(=O)c1cccc(F)c1 reads 11.3[16.7 µM]
Env fusion inh result of COc1ccccc1-c1ccc([C@H]2[C@@H](CO)N(C(=O)C3CCCC3)[C@H]2C#N)cc1 reads 16.2[16.7 µM]

3 compounds drawn at random from the list so far:
SMILES	Env fusion inh
CN(C)C(=O)C[C@@H]1CC[C@@H](NC(=O)C2CCOCC2)[C@@H](CO)O1	-1.3[16.7 µM]
CCS(=O)(=O)Nc1ccc2c(c1)C(=O)N(C)[C@@H]1CC[C@H](CC(=O)N[C@@H]3CCN(Cc4ccccc4)C3)O[C@H]1CO2	-17.4[16.7 µM]
CO[C@H]1CN(C)C(=O)c2cc(NC(=O)NC(C)C)ccc2OC[C@H](C)NC[C@H]1C	-9.9[16.7 µM]
